From PubChem
Rango-impB inh – qHTS Assay for Inhibitors of Rango (Ran-regulated importin-beta cargo) - Importin beta complex formation. hit rate 0.031% among 340,000. Importin subunit beta-1 (Homo sapiens), Q14974. Potency, µM (series often up to 92.2 µM), for inactives: at the top dose inhibition of complex formation. Rango CFP/YFP FRET sensor + importin beta, 45 min; active = rising FRET ratio curve, often small or poorly fitted; inconclusive = mostly compound fluorescence or quenching in the first reads; inactive = flat curves in all reads;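 also: potency is read from the fitted curve at half-maximal effect; 0% = DMSO wells and 100% = buffer wells lacking importin beta; nearly all actives have a fitted effect of over 15% in size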
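FRET biosensor Rango (snurportin 1 IBB between N-terminal EYFP and C-terminal Cerulean), 50 nM in PBS/1 mM DTT/0.02% Tween-20/0.1% BSA, preincubated 5 min RT with compound; 0.125 microM importin beta added, 45 min RT, CFP/YFP FRET ratio read.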
GLA inh pH 4.5 – qHTS Assay for Inhibitors of Human alpha-Galactosidase at pH 4.5. Alpha-galactosidase A (Homo sapiens), P06280. purified enzyme, 4-MU-alpha-Gal fluorescence, pH 4.5. activity change, negative = inhibition, % at 105 µM. 230,000 tested, under 10 active. AID 1467, 2008; inconclusive = small, poorly fitted or top-dose-only inhibition, or a rising curve; inactive = flat fitted curve, though single readings scatter; no compound was filed as active;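 also: 0% = full activity with enzyme and -100% = basal without enzyme; dose as in the result columns while the protocol names 77 µM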
Target sequence (P06280 whole entry, looked up): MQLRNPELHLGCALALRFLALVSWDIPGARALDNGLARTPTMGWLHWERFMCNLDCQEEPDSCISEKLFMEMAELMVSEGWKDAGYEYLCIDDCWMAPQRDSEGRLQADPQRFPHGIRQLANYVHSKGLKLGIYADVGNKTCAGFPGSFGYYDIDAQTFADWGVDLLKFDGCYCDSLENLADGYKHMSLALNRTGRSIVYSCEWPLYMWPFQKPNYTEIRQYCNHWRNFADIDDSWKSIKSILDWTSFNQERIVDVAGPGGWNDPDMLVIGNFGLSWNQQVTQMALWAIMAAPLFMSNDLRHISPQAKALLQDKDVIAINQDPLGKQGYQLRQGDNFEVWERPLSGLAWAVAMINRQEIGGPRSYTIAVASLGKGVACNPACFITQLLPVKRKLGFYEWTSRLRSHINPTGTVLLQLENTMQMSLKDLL
miR-21 reporter – qHTS Assay for Modulators of miRNAs and/orActivators of miR-21; HeLa miR-21 FLuc reporter, luciferase, 48 h; Potency, µM (doses to about 38.3 µM), for the others: top-dose reporter change, positive = more light; 340,000 tested, under 10 active; active = well fitted rising curve with a large enough effect; inconclusive = small, poorly fitted or top-dose-only effect; inactive = no such curve, though single readings can be large or run the other way;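 also: % of control where 0% means no effect; miR-21 action dims this reporter so a rising signal means less miR-21 action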
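Luminescence from a firefly luciferase reporter carrying a miR-21 binding site downstream, stably expressed under a CMV promoter in HeLa cells that make miR-21 endogenously, reports miRNA modulation after 48 h compound exposure up to approximately 40uM final.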
Rango release inh – qHTS Assay for Inhibitors of RanGTP induced Rango (Ran-regulated importin-beta cargo) - Importin beta complex dissociation; Potency, µM (doses to about 46.1 µM), for the others: top-dose activity change, negative = inhibition; Biochemical FRET Rango-importin beta, RanGTP-induced dissociation; hit rate 0.071% among 340,000; active means falling FRET ratio curve, often poorly fitted, with flat reads before Ran was added; inconclusive means other falling curves, or compound fluorescence or quenching; inactive means flat or rising ratio curve;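 also: potency is read from the fitted curve at half-maximal effect; % of control where 0% means no effect; nearly all actives have a fitted effect of over 45% in size; -100% = wells without RanGTP and RCC1; the record marks most hits as doubtful in a second field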
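Compounds sat 5 min at room temperature with 0.1 uM Rango biosensor plus 0.25 uM importin beta, then FRET pre-read. RanGTP-RCC1 (0.6 uM Ran, 2mM GTP, 0.2 uM RCC1) added for 45 min, and the CFP/YFP post-read measured blocked complex dissociation.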
* marks the source's active call; other numbers are inactive results; ? = inconclusive; / = no result given.

SMILES	Rango-impB inh	GLA inh pH 4.5	miR-21 reporter	Rango release inh
COc1cc(N=Nc2c(O)c3ccccc3[nH]c2=O)c(OC)cc1N=Nc1ccccc1	7.6%	-10	-7%	3%
Cc1ccc(CCNC(=O)CS(=O)Cc2nc(-c3ccccc3F)oc2C)cc1 (centres undefined)	-1.1%	/	-1%	-3%
CCOc1cc(/C=C/c2cc(C(=O)O)c3ccccc3n2)ccc1OC	?	-5	-6%	?
CCn1ccnc1CN1CCCC(C(=O)c2ccc3c4c(cccc24)CC3)C1 (centres undefined)	-3.7%	-4	-3%	4%
CC(C)(C)n1nnnc1CN1CCN(C(c2ccccc2)c2ccccc2)CC1	-1.9%	2	9%	1%
O=C1NC(=O)C(c2ccccc2)(c2ccc(O)cc2)N1 (centres undefined)	0.2%	/	/	1%
COc1ccc(-c2cc(C(=O)NCCCN3CCOCC3)no2)cc1	1.3%	/	1%	-4%
CCOc1ccc(C2NC(=O)c3ccccc3O2)cc1OC (centres undefined)	-0.5%	/	-1%	13%
Cn1c(-c2cccc([N+](=O)[O-])c2)[n+](C)c2ccccc21	-0.9%	-2	23%	1%
O=C(CSC(=S)N1CCCC1)NCCc1ccccc1	0.4%	/	/	2%
O=C(CCn1c(=O)oc2ccccc21)Nc1ccon1	2.2%	3	-8%	-9%
NC(=S)NN=C(c1ccc(Br)cc1)C1CC1	0.4%	/	/	11%
COc1cc(S(=O)(=O)NCc2cccnc2)ccc1F	-1.3%	8	0%	1%
CCCS(=O)(=O)N1CCC(C(=O)NCCCOC(C)C)CC1	-2.5%	7	-7%	4%
C=C1CCN([C@@H](C)C(=O)NCc2cc(OC)c(OC)c(OC)c2)S(=O)(=O)c2ccccc21	-6.9%	-8	5%	1%
COc1ccc(C(O)Cc2nccn2C)cc1 (centres undefined)	3.8%	/	/	9%
O=C(O)C1C2C=CC(C2)C1C(=O)NCCCN1CCCC1=O (centres undefined)	-0.7%	/	4%	2%
CCOc1cccc(Nc2cc3n(c(=O)n2)CCc2cc(OC)c(OC)cc2-3)c1	0.4%	-3	-28%	-10%
CCSc1ccccc1C(=O)NCCc1ccccc1	4.1%	-5	-9%	-10%
C=CCn1c(O)c(C(CC)=Nc2ccccc2NC(=O)CC)c(=O)[nH]c1=O	-2.6%	4	-16%	-9%
COc1ccc(CNC(=O)C(c2ccco2)N(C(=O)CNS(=O)(=O)c2ccccc2)c2ccccc2C)cc1 (centres undefined)	-5.8%	0	10%	16%
COC(=O)N/N=C/c1cc(Br)ccc1O	3.6%	2	-8%	-13%
COc1ccccc1CNS(=O)(=O)c1cccc2nsnc12	-4.8%	/	1%	-2%
COC(=O)c1nc(Cl)c(Cl)c(N)c1Cl	0.3%	4	-10%	-15%
COc1cccc(-c2nnc(NC(=O)CCS(=O)(=O)c3ccc(C)cc3)o2)c1	?	/	/	-6%
O=c1c2ccccc2nc(-c2ccco2)n1CCCn1ccnc1	0.2%	8	-8%	14%
Cc1sc2ncnc(N(C)Cc3cccs3)c2c1C	0.5%	-19	-9%	3%
CC(Nc1nc(N2CCCC2)nc2ccccc12)c1ccccc1 (centres undefined)	0.9%	7	28%	-10%
CN(C(=O)c1ccc(NC(=O)Cc2cccc(NC(=O)C3CCCN(C(=O)C4CCCC4)C3)c2)cc1)C1CC1 (centres undefined)	3.5%	/	/	8%
COc1ccc(C(=O)CC(=O)c2ccc(OC)cc2)cc1	-4.5%	/	-11%	1%
CCC(=O)Nc1nc(C)c(-c2csc(Nc3ccc(S(=O)(=O)Nc4cc(C)on4)cc3)n2)s1	/	0	0%	/
COC(=O)c1ccc(N(CC(=O)NC2CCCC2)C(=O)CNC(=O)c2ccco2)cc1	0.8%	-2	-3%	-3%
N=c1c2c(n(Cc3ccc(Cl)cc3)c3c1CCC3)CCC2	2.6%	1	?	-6%
CC(OC(=O)CNC(=O)c1sc2ccccc2c1Cl)c1ccccc1 (centres undefined)	-0.2%	/	/	-15%
Cc1ccc(C(=O)N[C@@H](Cc2ccccc2)C(=O)N2CCC3(CC2)NCCc2[nH]cnc23)cc1C	-5.3%	/	0%	1%
O=[N+]([O-])c1cc2c(cc1CN1CCN(c3ccccc3F)CC1)OCO2	-3.5%	/	-4%	-3%
CCN(CC)CCN(C(=O)c1cc2c(ccc3ccccc32)oc1=O)c1nc2cc3c(cc2s1)OCCO3	?	/	-30%	2%
CCN(CC)C(=O)Oc1cc(=O)n(C)c2ccccc12	-5.5%	-2	-8%	6%
CC(NC(=O)c1ccc(S(=O)(=O)NCc2ccco2)cc1)c1ccc(F)cc1 (centres undefined)	-2.0%	/	/	21%
O=C(CCc1nnc(CCCCc2ccccc2)o1)N(CCO)Cc1ccccc1	-3.6%	6	-5%	5%

Two entries picked at random from those above, as already listed:
SMILES	Rango-impB inh	GLA inh pH 4.5	miR-21 reporter	Rango release inh
CC(OC(=O)CNC(=O)c1sc2ccccc2c1Cl)c1ccccc1 (centres undefined)	-0.2%	/	/	-15%
COC(=O)c1ccc(N(CC(=O)NC2CCCC2)C(=O)CNC(=O)c2ccco2)cc1	0.8%	-2	-3%	-3%

At a glance, some entries already given.
SMILES	Rango-impB inh	GLA inh pH 4.5	miR-21 reporter	Rango release inh
N=c1c2c(n(Cc3ccc(Cl)cc3)c3c1CCC3)CCC2	2.6%	1	?	-6%
CC(OC(=O)CNC(=O)c1sc2ccccc2c1Cl)c1ccccc1 (centres undefined)	-0.2%	/	/	-15%
Cc1ccc(C(=O)N[C@@H](Cc2ccccc2)C(=O)N2CCC3(CC2)NCCc2[nH]cnc23)cc1C	-5.3%	/	0%	1%
O=[N+]([O-])c1cc2c(cc1CN1CCN(c3ccccc3F)CC1)OCO2	-3.5%	/	-4%	-3%

Following part
SMILES	Rango-impB inh	GLA inh pH 4.5	miR-21 reporter	Rango release inh
CN(C1CCCCC1)S(=O)(=O)c1ccc(S(=O)(=O)N(CC(=O)Nc2ccccc2)C2CC2)cc1	1.7%	-2	4%	-9%
O=C(NCCCNC(=O)c1ccco1)c1cccc(F)c1	-4.0%	/	-2%	-2%
CC(C)(C)NC(=O)CC1C[C@H](C(=O)N2CCCCC2)[C@@]2(C)c3[nH]c4ccccc4c3CCN2C1=O (some centres undefined)	-1.6%	/	/	9%
COc1ccc(Cl)cc1NC(=S)NNC(=O)c1cccs1	2.0%	-9	-33%	37%
COc1ccc(NC(=O)CSc2nc3ccccc3nc2N2CCOCC2)cc1	-0.5%	/	-1%	2%
Clc1cccc(-c2ccc(-c3nc4ccccn4c3NCc3ccccc3)cc2)c1	?	/	/	?
Cc1ccccc1N(C(=O)Cc1cccs1)C(C(=O)NC1CCCCC1)c1cn(C)nc1C (centres undefined)	-0.8%	-7	-6%	-1%
O=C(Nc1cccc2ncccc12)c1ccc(-c2ccc(Cl)cc2Cl)o1	?	-11	1%	0%
CCOc1ccc(CCNC(=O)COC(=O)CNC(=O)c2ccc(Br)o2)cc1OCC	-2.1%	/	/	0%
CCCOc1cccc(C(=O)NC(=S)Nc2ccc(N3CCN(C)CC3)cc2)c1	0.8%	4	-2%	14%
Cc1sc2nc(C(C)(C)C)oc(=O)c2c1C	-2.4%	8	-3%	0%
O=C(N/N=C/c1ccoc1)c1ccccc1F	1.6%	/	-35%	0%
Cc1c(Br)cnn1C(C)C(=O)N1CCN(c2ccccc2F)CC1 (centres undefined)	-0.1%	/	/	3%
CNC(=O)c1c(NC(=O)CCS(=O)(=O)c2ccc(Cl)cc2)sc2c1CCN(C(=O)OC)C2	-5.4%	/	/	-9%
CCOC(=O)c1cnc2ccc(C(=O)OC)cc2c1NCCN1CCOCC1	-3.4%	1	-8%	1%
CCOC(=O)[C@H]1[C@H]2COc3ccccc3[C@@H]2N2C(=O)c3cc(Cl)ccc3NC(=O)[C@@]12C	4.3%	/	/	5%
CC(C)n1c(N2CCN(C(=O)Nc3ccc(F)cc3F)CC2)nc2ccccc21	0.6%	-7	-5%	3%
COc1ccccc1CNS(=O)(=O)CC12CCC(CC1=O)C2(C)C (centres undefined)	0.1%	/	8%	10%
O=C(NCCS(=O)c1ccc(Cl)cc1)c1cccc(Cl)c1 (centres undefined)	-0.9%	-1	-1%	9%
CCOC(=O)C(NC(=O)NCc1ccccc1)(OCC)C(F)(F)F (centres undefined)	?	6	12%	-4%
Nn1c(SCC(=O)N2CCCCCC2)nnc1-c1ccco1	-0.1%	/	/	-18%
CCOc1ccc(Nc2cc(Nc3ccccc3OCC)nc(C=C(C#N)C#N)n2)cc1	?	1	-1%	5%
CCOc1ccccc1NC(=S)NC(=O)CCc1ccccc1	-4.1%	/	-5%	-4%
O=C(c1cnn2ccccc12)N(Cc1ccco1)C1CCCC1	-2.5%	-3	7%	-12%
O=C(CSc1nnc(-c2ccccc2)n1C1CCCCC1)N1CCCC1	6.0%	1	0%	-1%
Clc1ccc(CSc2nnc(-c3ccncc3)s2)cc1	-0.6%	-5	-10%	1%
O=C(C1=C[C@H](c2ccccc2)C[C@H](OCCCCO)O1)N1CCN(Cc2ccc3c(c2)OCO3)CC1	-3.8%	3	-3%	-7%
O=C(Nc1ccccn1)C1COc2ccccc2O1 (centres undefined)	-4.5%	-2	-48%	2%
O=C(Nc1ccc(CSc2ccccc2)cc1)c1ccccc1	-3.8%	4	-4%	0%
N#Cc1ccc2ccn(CC(=O)NCc3ccco3)c2c1	2.6%	0	-1%	-20%
CC(C)(/C=N/O)/[N+]([O-])=C/c1ccccc1	-0.4%	0	-1%	1%
O=C(c1ccc(Cl)cc1)C1CCN(Cc2ccccc2)CC1	0.6%	/	-4%	-3%
CCc1nc(NCCCN2CCOCC2)c2oc3ccccc3c2n1	-2.7%	0	-2%	13%
Cn1ccc2cc(-c3csc(N4CCC(C(N)=O)CC4)n3)ccc21	-5.5%	/	/	-4%
CC1=C(N2CCOCC2)CCC1=O	5.7%	/	/	1%
NC(=O)c1cc[n+](CC2=C(C(=O)O)N3C(=O)[C@@H](NC(=O)C(c4ccccc4)S(=O)(=O)[O-])[C@H]3SC2)cc1 (some centres undefined)	?	0	-1%	?
CC(=O)C[C@H](O)CC(=O)[C@H]1OC(=O)CCCCCCCc2ccccc21	?	/	/	1%
CCOC(=O)N1CCN(C(=O)COc2ccccc2[N+](=O)[O-])CC1	0.4%	3	-4%	-7%
CC(=O)N1CCN(C(=O)c2ccc(Cl)c(NC(=O)c3cccs3)c2)CC1	?	/	/	-1%
O=C(Cn1cnc([N+](=O)[O-])n1)N/N=C/c1ccc(O)cc1O	-3.8%	-2	10%	3%
CC12CN(Cc3ccccc3)CC(C)(CN(Cc3ccccc3)C1)C2=NO	-3.7%	-4	1%	11%
CC(C)(C)NC(=O)c1ccnc(C(C)(C)C)c1	-1.2%	-10	-7%	15%
CCN(CC(=O)Nc1ccccc1C(F)(F)F)C(=O)CCOc1ccccc1C	4.1%	/	/	11%
Cc1ccc(NS(=O)(=O)c2ccc(C(=O)NCCN3CCOCC3)cc2)cc1	0.2%	/	/	3%
CCCCCOc1ccc(C(=O)NCC2(c3ccccc3)CCOCC2)cc1	1.0%	7	20%	1%
CCNC(=O)CC1S/C(=N/N=C(\C)c2ccccc2)NC1=O (centres undefined)	4.9%	3	-4%	-9%
Cc1ccc2c(c1)C(=O)N1[C@H]3c4cc(C)ccc4OC[C@@H]3[C@H](c3ccccc3)[C@]1(C)C(=O)N2	3.4%	/	/	-6%
COCCn1c(SCC(=O)N2CCCCCC2)nnc1-c1ccco1	2.2%	/	-3%	-10%
CCC(CC)CN1C(Nc2ccccc2)=NC[C@@H]1CC(C)C	1.7%	/	5%	0%
CC(C(=O)N1CCN(C2c3ccccc3-c3ccccc32)CC1)N1C(=O)c2ccccc2C1=O (centres undefined)	-0.9%	-7	-1%	-15%
Nc1cc(SCc2ccc(Cl)cc2Cl)ncn1	0.5%	/	/	14%
O=C(N/C(=C\c1ccc2c(c1)OCO2)C(=O)N1CCOCC1)c1ccccc1Br	-1.0%	/	-3%	4%

Some of the compounds tested. The share of hits here may be higher or lower than overall.
